Source: PubChem (several laboratories)
Hsc70: Hsc70 inhibitors, probe displacement, primary screen, biochemical, fluorescence polarization (AID 568). 83,000 tested, under 10 active. Hsc70 fluorescence polarization, probe displacement; higher % means a stronger effect; strong numbers were not always called active. displacement, % at 20 µM; hits with a dose series show IC50 in µM;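 active means displacement above 50% without optical interference and an IC50 on retest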;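 further: ATPase domain with a fluorescein-tagged ATP probe; 0% = vehicle and 100% = excess ADP; read after one hour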
WNV NS2B-NS3 inh: inhibitors of West Nile virus NS2B-NS3 protease | WNV NS2B-NS3 protease, fluorogenic substrate Ex360/Em465; hits give low values | z-score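 (tested at a level between 10 and 100 µM)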 | AID 577 | actives 0.18% (n = 65,000) | P06935;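 active means z-score at -3 or under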;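 further: score is relative to mean and spread of the compound wells of a plate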
Target sequence (P06935 1371-1501 limits assumed): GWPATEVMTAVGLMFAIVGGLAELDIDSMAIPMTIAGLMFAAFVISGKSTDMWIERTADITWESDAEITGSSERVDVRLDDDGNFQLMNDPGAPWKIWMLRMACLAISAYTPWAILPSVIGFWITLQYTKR
Target sequence (P06935 1502-1679 limits assumed): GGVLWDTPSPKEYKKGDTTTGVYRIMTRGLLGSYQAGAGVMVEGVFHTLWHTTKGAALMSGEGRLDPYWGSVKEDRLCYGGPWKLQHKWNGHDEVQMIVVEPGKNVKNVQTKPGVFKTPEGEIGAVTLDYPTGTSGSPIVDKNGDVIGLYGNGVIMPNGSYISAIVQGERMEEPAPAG
MT1-MMP promoter: inhibitors of MT1-MMP promoter transcription, cell-based, luciferase reporter, luminescence (AID 618) | MT1-MMP promoter luciferase reporter cells, luminescence | calls from a first round at 10 µM; hits with a dose series show EC50 in µM | actives 0.62% (n = 87,000);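 active means over half of the reporter light lost at 10 µM or EC50 under 50 µM; inactive means the rest and hits that failed the dose series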;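 further: actives suppress MT1-MMP promoter-driven transcription so potencies describe inhibitors; HT1080 fibrosarcoma cells; overnight exposure; toxic or luciferase-blocking compounds were not removed from the actives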
* hit, by the source's call; i = inactive; . = no result given; + = active, no number. Random draw from the library, and some 0.87% of all compounds hit somewhere here.

Start of the data: the first 13 compounds (preview)
1) Cc1nc(-c2ccccc2)nc2[nH]c(C(C)C)cc(=O)c12
2) CCSCc1nnc(SCC(=O)Nc2cccc(SC)c2)n1C
3) S=c1[nH]nc(CSc2nc3ccccc3s2)n1Cc1ccccc1
4) COc1ccc(-c2nnc(NC(=O)C(C)C)o2)cc1
5) O=C(CSc1nnc(Cc2cccs2)n1C1CCCCC1)N1CCCc2ccccc21
6) N#CC1=C(N)N(c2ccc(Oc3ccccc3)cc2)C(=O)C1
7) CC1(C)CC(=O)c2cnc(N3CCN(c4ccccc4)CC3)nc2C1
8) CCOc1ccc(N2C(=O)CSC23CCCCC3)cc1
9) CC(C)(C)S(=O)c1cccs1 (centres undefined)
10) Cc1onc(-c2ccccc2)c1C(=O)n1nnc2ccccc21
11) COc1ccc(NC(=O)CSc2nnc(N)s2)cc1
12) CCOC(=O)CC(=O)Nc1nnc(C(C)C)s1

compound no. | 1 | 2 | 3 | 4 | 5 | 6 | 7 | 8 | 9 | 10 | 11 | 12
WNV NS2B-NS3 inh | 0.27 | -1.6 | . | -0.48 | 0.08 | 0.56 | -0.44 | 0.86 | . | -0.22 | 0.55 | 0.37
Hsc70 | 0.3% | -4.3% | -6.0% | -3.3% | 2.3% | -5.7% | -1.1% | -6.4% | 0.7% | 1.7% | 9.9% | 0.2%
MT1-MMP promoter | i | i | i | i | i | i | i | i | i | i | i | i

13) Cc1ccccc1N1C(=O)C2ON(c3ccccc3)C(c3cccnc3)C2C1=O (centres undefined)

compound no. | 13
WNV NS2B-NS3 inh | 0.65
Hsc70 | -1.2%
MT1-MMP promoter | i

The list itself, repeating the preview:
1) Cc1nc(-c2ccccc2)nc2[nH]c(C(C)C)cc(=O)c12
2) CCSCc1nnc(SCC(=O)Nc2cccc(SC)c2)n1C
3) S=c1[nH]nc(CSc2nc3ccccc3s2)n1Cc1ccccc1
4) COc1ccc(-c2nnc(NC(=O)C(C)C)o2)cc1
5) O=C(CSc1nnc(Cc2cccs2)n1C1CCCCC1)N1CCCc2ccccc21
6) N#CC1=C(N)N(c2ccc(Oc3ccccc3)cc2)C(=O)C1
7) CC1(C)CC(=O)c2cnc(N3CCN(c4ccccc4)CC3)nc2C1
8) CCOc1ccc(N2C(=O)CSC23CCCCC3)cc1
9) CC(C)(C)S(=O)c1cccs1 (centres undefined)
10) Cc1onc(-c2ccccc2)c1C(=O)n1nnc2ccccc21

compound no. | 1 | 2 | 3 | 4 | 5 | 6 | 7 | 8 | 9 | 10
WNV NS2B-NS3 inh | 0.27 | -1.6 | . | -0.48 | 0.08 | 0.56 | -0.44 | 0.86 | . | -0.22
Hsc70 | 0.3% | -4.3% | -6.0% | -3.3% | 2.3% | -5.7% | -1.1% | -6.4% | 0.7% | 1.7%
MT1-MMP promoter | i | i | i | i | i | i | i | i | i | i

11) COc1ccc(NC(=O)CSc2nnc(N)s2)cc1
12) CCOC(=O)CC(=O)Nc1nnc(C(C)C)s1
13) Cc1ccccc1N1C(=O)C2ON(c3ccccc3)C(c3cccnc3)C2C1=O (centres undefined)
14) CCC(c1nnc(SCC(=O)NCCc2ccc(Cl)cc2Cl)o1)N(C)C (centres undefined)
15) CCOc1ccc(OCC)c(NC(=O)CSc2nnnn2CC)c1
16) O=C(COC(=O)c1cc(-c2ccco2)nc2ccccc12)NCc1ccc2c(c1)OCO2
17) Oc1cccc(Nc2nc(NCC3CCCO3)c3ccccc3n2)c1 (centres undefined)
18) CCOC(=O)c1ccccc1NC(=O)CN1CCC(n2nnc3cc(F)ccc32)CC1
19) CCCCn1c2nc3ccccc3nc2c2c(=O)n(CCC)cnc21
20) CCN(CC)CCN1C(=O)C(=O)/C(=C(/O)c2c(C)[nH]c(C(=O)OC)c2C)C1c1ccco1 (centres undefined)

compound no. | 11 | 12 | 13 | 14 | 15 | 16 | 17 | 18 | 19 | 20
WNV NS2B-NS3 inh | 0.55 | 0.37 | 0.65 | 1.1 | . | 0.02 | 0.3 | -0.47 | 1.2 | -0.09
Hsc70 | 9.9% | 0.2% | -1.2% | -1.9% | 2.4% | -13% | 6.2% | -6.9% | 0.6% | 2.0%
MT1-MMP promoter | i | i | i | i | i | i | i | i | i | i

21) Nn1c(SCc2nc3ccccc3[nH]2)nnc1-c1cccnc1
22) CC(C)C(=O)N1CCC(CN=Cc2c(O)n(C3CCCCC3)c(=O)n(C3CCCCC3)c2=O)CC1
23) COc1cc2[nH]c(=O)n(CCC(=O)N3CCN(c4cccc(C)c4C)CC3)c(=O)c2cc1OC
24) CN(C)C(=O)Cn1c(SCC(=O)Nc2ccc3c(c2)OCO3)nc2ccccc21
25) O=C(NC1CCCCC1NC(=O)c1cccs1)c1cccs1 (centres undefined)
26) CCNC(=O)CC1SC(=Nc2ccccc2C)N(C)C1=O (centres undefined)
27) COc1ccccc1N1CCN(C(=O)C(OC(C)=O)c2ccccc2)CC1 (centres undefined)
28) CCN(CC)C(=O)Oc1ccc2c(=O)c(-c3ccc(OC)cc3)coc2c1
29) CCOC(=O)CSc1ccc(-c2nc3ccccc3[nH]2)cn1
30) Cc1cccc(-c2noc(CCc3ccccc3)n2)c1

compound no. | 21 | 22 | 23 | 24 | 25 | 26 | 27 | 28 | 29 | 30
WNV NS2B-NS3 inh | -0.37 | 0.97 | -0.2 | . | -0.34 | 0.41 | . | -1 | . | -0.09
Hsc70 | 1.3% | -4.4% | -1.6% | -2.2% | 0.7% | 0.9% | -1.4% | -0.3% | 2.6% | 5.6%
MT1-MMP promoter | i | i | i | i | i | i | i | i | i | i

31) Cc1cc(-c2ccccc2C(=O)NCc2ccccc2)on1
32) CCN(C(=O)c1coc(=O)c2ccccc12)c1cc(OC)ccc1OC
33) Cc1cc(C)n(CC(=O)n2c(C)c(C)c3ccccc32)n1
34) CCCc1cc(-c2[nH]ncc2-c2ccc3c(c2)OCCCO3)c(O)cc1O
35) Cc1n[nH]c(=O)nc1NCc1ccccc1Cl
36) CCC(=O)NCCc1cc2cc(C)c(C)cc2[nH]c1=O
37) Cc1ccc2[nH]c(=O)c(CN(Cc3cccs3)Cc3nnnn3CC3CCCO3)cc2c1 (centres undefined)
38) Cc1nnc(SCCn2c(N3CCC(C)CC3)nc3c2c(=O)n(C)c(=O)n3C)s1
39) CCN(CC)S(=O)(=O)c1cccc(C(=O)Nc2ccc(Cl)cn2)c1
40) Cc1cc(=O)oc2cc(NC(=O)C3COc4ccccc4O3)ccc12 (centres undefined)

compound no. | 31 | 32 | 33 | 34 | 35 | 36 | 37 | 38 | 39 | 40
WNV NS2B-NS3 inh | -0.72 | -0.34 | . | -1.6 | 0.02 | 0.59 | -0.21 | -0.01 | 0.3 | 0.54
Hsc70 | 5.3% | -4.4% | 5.0% | 2.6% | 1.6% | -1.8% | 4.9% | -3.7% | 0.2% | 6.2%
MT1-MMP promoter | i | i | i | i | i | i | i | i | i | i

41) COc1ccc(NC(=O)C2CCCCN2S(=O)(=O)c2ccc(F)cc2)cc1 (centres undefined)
42) COc1ccc(CNC(=O)C2CC(=O)N(c3ccc(OCC(=O)N4CCCCC4)cc3)C2)cc1 (centres undefined)
43) O=C(Nc1ccccc1C(=O)NCc1ccco1)NC1CCCCC1
44) CCc1ccc(OCCCC(=O)O)c(Br)c1
45) CC(C)(C)C(=O)CC(=O)Nc1ccc(Cl)c(N)c1
46) CCSc1nnc(NC(=O)CN(C)S(=O)(=O)c2ccc(F)cc2)s1
47) COc1ccccc1N/N=C/c1c(CO)cnc(C)c1O
48) CCOC(=O)C(NC(=O)c1cccnc1)(Nc1cccc(C)n1)C(F)(F)F (centres undefined)
49) Cc1cc2ccccc2c(=O)n1CC(=O)Nc1ccc2c(c1)OCO2
50) COC(=O)[C@H](Cc1ccccc1)NC(=O)N1CC(C)OC(C)C1 (some centres undefined)

compound no. | 41 | 42 | 43 | 44 | 45 | 46 | 47 | 48 | 49 | 50
WNV NS2B-NS3 inh | 0.51 | -1.6 | 2.4 | -0.77 | 0.74 | -1.1 | . | -0.75 | -0.72 | 1.1
Hsc70 | -3.5% | 0.1% | 1.8% | 3.2% | -1.3% | 1.7% | -1.1% | 2.2% | 3.7% | 4.1%
MT1-MMP promoter | i | i | i | i | i | i | i | i | i | i

51) O=C(NCCN1C(=O)CSC1=O)c1ccccc1
52) Cc1cc(NC(=O)CSc2nc3sc4c(c3c(=O)n2C)CCCC4)no1
53) CC(=Nc1ccccc1)Nc1ccccc1
54) c1ccc(-c2nnc(Cn3c4ccccc4c4nc5ccccc5nc43)o2)cc1
55) O=C(NCC1(c2ccccc2)CCCC1)C(=O)NCC1(c2ccccc2)CCCC1
56) COc1ccccc1C(=O)N1CCN(c2cccc(C(F)(F)F)c2)CC1
57) Cc1noc(COc2ccccc2OCc2onc(C)c2Cl)c1Cl
58) O=C(NCC(c1cccs1)N1CCOCC1)c1ccc(Cl)s1 (centres undefined)
59) CCN(CC)CCOC(=O)CCc1cccc2ccccc12
60) CCOC(=O)c1sc(NC(=O)c2cccs2)cc1C

compound no. | 51 | 52 | 53 | 54 | 55 | 56 | 57 | 58 | 59 | 60
WNV NS2B-NS3 inh | 0.11 | -0.94 | -1.2 | 0.86 | . | -0.65 | . | 0.54 | . | 0.13
Hsc70 | -0.5% | -3.9% | -5.0% | 0.2% | -5.1% | 4.1% | -1.8% | 3.9% | -0.2% | -1.3%
MT1-MMP promoter | i | i | i | i | i | + | i | + | i | i

61) Cc1ccccc1C(=O)c1cccn1CC(=O)NCc1ccc2c(c1)OCO2
62) Cc1cc(C)n(-c2nnc(C)n2NS(=O)(=O)c2ccc(F)cc2)n1
63) CCOC(=O)C1(CCSC)NC(c2ccco2)C2C(=O)N(C)C(=O)C21 (centres undefined)
64) O=C(COc1ccccc1)NCc1cccs1
65) CCCCOC(=O)n1ccc(C(=O)Nc2ccccc2OC)n1
66) CC(C)OC(=O)c1nn2c(C(F)(F)F)cc(-c3ccco3)nc2c1Cl
67) Cc1cccc(-n2c(O)c(C=Nc3c(C)n(C)n(-c4ccccc4)c3=O)c3ccccc3c2=O)n1
68) CC1(C)C(c2ccccc2)=[N+]([O-])C2(CCCCC2=O)N1O (centres undefined)
69) Cc1cc(NC(=O)CSc2nc(C3CCCCC3)nc3ccccc23)no1
70) Cc1ccc(NC(=O)COC(=O)Cn2c(C)csc2=O)cc1

compound no. | 61 | 62 | 63 | 64 | 65 | 66 | 67 | 68 | 69 | 70
WNV NS2B-NS3 inh | . | -0.87 | 0.88 | . | -0.37 | . | 0.78 | . | 0.17 | 0.41
Hsc70 | -2.1% | -8.9% | 2.2% | -2.2% | 1.3% | -80% | 3.8% | -0.8% | 6.9% | 7.8%
MT1-MMP promoter | i | i | i | i | i | i | i | i | i | i

71) Cc1cc(C)cc(OCC(=O)NCCN2CCOCC2)c1
72) CCOC(=O)CNc1nc(OCC#N)nc(N2CCOCC2)n1
73) CCCc1cc(=O)[nH]c(SCC)n1
74) CN1CCN(CCCNC(=O)c2ccc(CS(=O)(=O)c3ccc(Br)cc3)o2)CC1
75) O=C(CCn1c(=O)oc2ccccc21)Nc1cccc(Cl)c1
76) COc1ccc(N2CCN(Cc3cc(=O)oc4ccc(Cl)cc34)CC2)cc1
77) Cc1ccccc1CSc1nc2c(c(=O)[nH]1)CCC2
78) Clc1ccc(-n2ncc3c(N4CCCC4)ncnc32)cc1
79) COc1ccc(-c2n[nH]c(C(F)(F)F)c2-c2cc3ccccc3o2)c(O)c1
80) COCCN(CCOC)C(=O)C12CCC(C)(C(=O)C1)C2(C)C (centres undefined)

compound no. | 71 | 72 | 73 | 74 | 75 | 76 | 77 | 78 | 79 | 80
WNV NS2B-NS3 inh | 1 | -0.64 | 0.74 | 1.6 | -0.06 | 0.06 | -0.17 | -1.7 | -1.3 | 0.24
Hsc70 | -2.7% | 1.7% | -6.0% | -2.9% | 4.8% | 4.3% | -1.3% | 1.0% | 3.2% | -4.1%
MT1-MMP promoter | i | i | i | i | i | i | i | i | i | i

81) C=CCn1c(-c2cccc(Cl)c2)n[nH]c1=S
82) COCCN(CCOC)C(=O)c1sc2nc(-c3ccccc3)cn2c1C
83) COc1ccc(NC(=O)C2CCCN(S(=O)(=O)c3c(C)n[nH]c3C)C2)c(OC)c1 (centres undefined)
84) CCCC1c2ccc(C)n2CCN1C(=O)Nc1ccccc1Cl (centres undefined)
85) O=C(COC(=O)c1cccs1)NCC1CCCO1 (centres undefined)
86) CCN(CC)S(=O)(=O)c1ccc(-c2nnc(SCC(=O)N3c4ccccc4CC3C)o2)cc1 (centres undefined)
87) O=c1c2c(n3cnnc3n1C1CCCCC1)-c1ccccc1CC21CCCCC1
88) COc1ccc(OC(=O)c2cc3ccccc3o2)cc1
89) Cc1cn(COC/C=C/c2ccccc2)c(=O)[nH]c1=O
90) Cc1cc(C)c(NC(=O)C2CCCN2CCC(C)C)c(C)c1 (centres undefined)

compound no. | 81 | 82 | 83 | 84 | 85 | 86 | 87 | 88 | 89 | 90
WNV NS2B-NS3 inh | -0.53 | -0.71 | 1.3 | 1.3 | 0.58 | 1.2 | . | -0.69 | -0.52 | .
Hsc70 | 4.1% | 7.2% | -0.2% | 6.4% | 7.7% | -1.9% | 1.3% | 5.6% | -2.7% | 2.0%
MT1-MMP promoter | i | i | i | i | i | i | i | i | i | i
